High-throughput results (PubChem)
Rango-impB inh – Rango-importin beta binding inhibition; Q14974; Rango CFP/YFP FRET sensor + importin beta, 45 min; 0.031% of 340,000 active; Potency, µM (highest dose often 92.2 µM), for inactives: at the highest dose inhibition of complex formation; active = rising FRET ratio curve, often small or poorly fitted; inconclusive = mostly compound fluorescence or quenching in the first reads; inactive = flat curves in all reads;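 further: potency means the concentration at half of the fitted maximal effect; 0% = DMSO wells and 100% = buffer wells lacking importin beta; nearly all actives have a fitted effect of over 15% in size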
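FRET biosensor (snurportin 1 IBB flanked by EYFP and cerulean), 50 nM, with compound 5 min, then 0.125 microM importin beta in PBS, 1 mM DTT, 0.02% Tween-20, 0.1% BSA. CFP/YFP ratio read after 45 min at room temperature; pre-read flags interference.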
miR-21 FLuc – raises the signal of a miR-21 reporter. HeLa miR-21 FLuc reporter, luciferase, 48 h. Potency, µM (doses to about 38.3 µM), for the others: at the highest dose reporter change, positive = more light. 340,000 tested, under 10 active. AID 2288; active = well fitted rising curve with a large enough effect; inconclusive = small, poorly fitted or top-dose-only effect; inactive = no such curve, though single readings can be large or run the other way;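 further: % of control where 0% means no effect; miR-21 action dims this reporter so a rising signal means less miR-21 action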
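Using DMEM plus 10% FBS, HeLa miR-21-FLuc cells are incubated with test compounds (final up to about 40uM) for 48 hours; firefly luciferase signal is then imaged following reagent-mediated lysis.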
Rango release inh – inhibitors of RanGTP-induced Rango-importin beta complex dissociation. O95149+P62826. Biochemical FRET Rango-importin beta, RanGTP-induced dissociation. Potency, µM (series often up to 46.1 µM), inactives show at the top dose activity change, negative = inhibition. 0.071% of 340,000 active; active means falling FRET ratio curve, often poorly fitted, with flat reads before Ran was added; inconclusive means other falling curves, or compound fluorescence or quenching; inactive means flat or rising ratio curve;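 further: potency means the concentration at half of the fitted maximal effect; % of control where 0% means no effect; nearly all actives have a fitted effect of over 45% in size; -100% = wells without RanGTP and RCC1; the record marks most hits as doubtful in a second field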
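Compounds preincubate 5 min with complex of recombinant Rango and importin beta in PBS with 1 mM DTT. Ran (0.6 uM) loaded with 2 mM GTP plus 0.2 uM RCC1 starts dissociation; FRET is recorded 45 min later.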
GLA inh pH 4.5 – inhibitors of human alpha-galactosidase A at pH 4.5. purified enzyme, 4-MU-alpha-Gal fluorescence, pH 4.5. P06280. activity change, negative = inhibition, % at 105 µM. 230,000 tested, under 10 active; inconclusive = small, poorly fitted or top-dose-only inhibition, or a rising curve; inactive = flat fitted curve, though single readings scatter; no compound was filed as active;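 further: 0% = full activity with enzyme and -100% = basal without enzyme; dose as in the result columns while the protocol names 77 µM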
Target sequence (P06280 whole entry, looked up): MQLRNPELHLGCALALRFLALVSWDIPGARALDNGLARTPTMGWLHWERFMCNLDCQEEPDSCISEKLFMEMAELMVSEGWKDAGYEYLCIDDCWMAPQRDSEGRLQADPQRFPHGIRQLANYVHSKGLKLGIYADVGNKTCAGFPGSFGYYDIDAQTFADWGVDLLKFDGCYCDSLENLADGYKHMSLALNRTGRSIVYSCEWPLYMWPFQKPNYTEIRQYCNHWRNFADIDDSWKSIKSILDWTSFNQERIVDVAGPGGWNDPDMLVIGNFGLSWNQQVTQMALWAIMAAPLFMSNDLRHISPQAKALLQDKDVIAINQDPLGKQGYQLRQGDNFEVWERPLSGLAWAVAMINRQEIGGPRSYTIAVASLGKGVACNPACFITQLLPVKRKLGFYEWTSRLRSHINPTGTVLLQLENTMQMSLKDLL
* marks the source's active call; other numbers are inactive results; ? = inconclusive; . = no result given.

Rango release inh | Rango-impB inh | miR-21 FLuc | GLA inh pH 4.5 | compound
-1% | -2.1% | -12% | . | Cc1ccc(C2C(N)C(=O)N2c2ccc(C)cc2)cc1 (stereo not given)
6% | -3.0% | -26% | -28 | O=C(NNc1nc(-c2ccccc2)cs1)c1ccccc1
-5% | 2.3% | -9% | 12 | O=C(Nc1nnc(-c2ccccc2)o1)Nc1ccccc1Cl
? | ? | 1% | 2 | CC(SCc1cc(=O)n2c([nH]c3ccccc32)c1C#N)C(=O)O (stereo not given)
0% | -5.7% | -5% | -9 | CCOC(=O)N1CCN(C(=O)CCc2c(C)nc3c(c(C)nn3-c3ccc(C)c(C)c3)c2C)CC1
0% | -0.1% | -3% | 4 | COc1ccc(Cl)cc1N(CC(=O)NC1CC1)S(=O)(=O)c1ccc(C)c([N+](=O)[O-])c1
-5% | 1.3% | . | . | CC(=O)c1sc(NC(=O)CS(=O)(=O)c2ccccc2)nc1C
0% | -3.3% | -4% | . | O=C(NCCC(=O)N1CCC2(CC1)NCCc1[nH]cnc12)c1cccc(Br)c1
-13% | 5.1% | -1% | -5 | O=C(CSc1ncn[nH]1)Nc1ccc(S(=O)(=O)Nc2ncccn2)cc1
-10% | -1.3% | -12% | . | COc1ccc(N2CCN(C(=O)c3cc4cc(Cl)ccc4[nH]3)CC2)cc1
10% | 1.1% | . | . | Cc1ccc(-c2nnc(N3CCOCC3)c3ccccc23)cc1S(N)(=O)=O
-14% | -2.8% | -6% | 3 | Cc1noc(C(=O)NCc2ccc(F)cc2)c1Cl
-4% | -1.4% | -44% | . | O=C(COc1ccccc1Cl)N1CCc2ccccc2C1
-4% | 1.4% | -3% | 2 | O=S(=O)(Nc1ccc(S(=O)(=O)Nc2ccccc2)cc1)c1ccccc1
6% | -1.8% | -3% | -2 | COc1ccc(C(=O)c2nc3c(n2O)CCCC3)cc1OC
28% | -3.1% | -1% | 4 | O=C(COc1ccccc1)NNC(=S)NC(=O)c1ccccc1
-18% | -1.4% | -17% | 2 | Cc1cc(-c2nnc(CCC(=O)N(C)Cc3ccsc3)o2)no1
-11% | -2.3% | -4% | 2 | COc1cc2c(cc1OC)C(SC)=NC1(CCCC1)C2
7% | -1.7% | -11% | -17 | CCN(CC)CCOC(c1ccccc1)c1ccc(C)cc1 (stereo not given)
3% | -0.1% | 0% | 5 | NC(=O)c1ccc[n+](CCC[n+]2cccc(C(N)=O)c2)c1
-7% | -0.4% | 0% | . | O=C(Nc1ccccc1C(=O)O)c1cccc(S(=O)(=O)Nc2ccc(Br)cc2)c1
24% | -3.4% | . | . | O=C(COC(=O)c1cc(S(=O)(=O)N2CCCCC2)ccc1N1CCOCC1)c1ccccc1
1% | 2.4% | -10% | 4 | N#CC1=C2Nc3ccccc3N2C(=O)NC1(c1ccccc1)C(F)(F)F (stereo not given)
1% | -2.2% | -3% | -8 | COC(=O)c1ccc(C2C(Oc3ccc(OC)cc3)C(=O)N2CCc2ccc(OC)c(OC)c2)cc1 (stereo not given)
-10% | -1.2% | -20% | -5 | Cc1nc(SCC(=O)N2CC(=O)Nc3ccccc32)c2c(C)c(C)sc2n1
-6% | 0.6% | 6% | -9 | CC(C(=O)NC1CCCC1)N(Cc1ccco1)C(=O)c1snc(C(=O)NC2CCCC2)c1N (stereo not given)
? | ? | -3% | 2 | Cc1cccc(NC(=O)CSc2cc(C)c(C#N)c3nc4ccccc4n23)c1
2% | 4.5% | -2% | 5 | Cc1ccc(S(=O)(=O)N(C)c2ccc(N)cc2)cc1
1% | -13% | 14% | ? | CC(C)(C)c1ccc(Cn2nnc3c(=O)[nH]c(C4CCCN(C(=O)Cc5cccs5)C4)nc32)cc1 (stereo not given)
-3% | -1.7% | -6% | -7 | Cc1ccc(S(=O)(=O)/N=C(/c2ccc(F)cc2)N2CCCC2)cc1

By substructure, the compounds so far containing two or more sulfur atoms
Rango release inh | Rango-impB inh | miR-21 FLuc | GLA inh pH 4.5 | compound
-5% | 1.3% | . | . | CC(=O)c1sc(NC(=O)CS(=O)(=O)c2ccccc2)nc1C
-13% | 5.1% | -1% | -5 | O=C(CSc1ncn[nH]1)Nc1ccc(S(=O)(=O)Nc2ncccn2)cc1
-4% | 1.4% | -3% | 2 | O=S(=O)(Nc1ccc(S(=O)(=O)Nc2ccccc2)cc1)c1ccccc1
-10% | -1.2% | -20% | -5 | Cc1nc(SCC(=O)N2CC(=O)Nc3ccccc32)c2c(C)c(C)sc2n1

(list continues)
Rango release inh | Rango-impB inh | miR-21 FLuc | GLA inh pH 4.5 | compound
? | 2.7% | -4% | 12 | CCOC(=O)c1sc2nc(C(C)C)c3c(c2c1N)CC(C)(C)OC3
-6% | 0.7% | 8% | -14 | C=CCOc1c(Br)cc(CNc2ccc3[nH]c(=O)[nH]c3c2)cc1OCC
3% | 0.2% | -5% | 3 | Cc1ccc(SCCC(=O)NC2CC2)cc1
-15% | -4.9% | -8% | 3 | CC1=C(C(=O)Nc2ccc(F)cc2)C(c2cccc(C)c2)n2nc(CCCO)nc2N1 (stereo not given)
0% | -0.5% | -6% | 9 | CCCCN=CC1=C(O)C(C(=O)OC)C(C)(C)CC1=O (stereo not given)
-2% | 2.4% | -3% | -3 | CC(=O)NC1CSCC1OC(C)=O (stereo not given)
-2% | 0.6% | . | . | CCN(CC)S(=O)(=O)c1ccc(N2CCOCC2)c(NC(=O)CSCc2c(C)noc2C)c1
9% | 4.2% | 6% | 4 | CC(C)(C)NC(=O)NC(=O)COC(=O)CNC(=O)C1CCCCC1
-5% | 0.3% | . | . | CC(=O)C1CCC2C3CCC4=CC(=O)C=CC4(C)C3CCC12C (stereo not given)
-1% | 0.2% | -2% | 2 | Cc1nc(S(=O)(=O)Cc2ccccc2Cl)nc2c1CCC2
0% | -2.6% | . | . | COc1ccc(/C=C(\C#N)C(=O)OCC(=O)N(C)C2CCS(=O)(=O)C2)cc1 (stereo not given)
2% | 3.9% | 8% | 0 | O=C(Nc1cccc(F)c1)c1sc(Cl)nc1-c1ccccc1
22% | -3.4% | -24% | -2 | O=S(=O)(NCc1cn2ccccc2n1)c1cccs1
7% | 4.1% | -9% | 1 | COc1ccc(CNC(=O)CN(c2cc(C)cc(C)c2)S(=O)(=O)c2c(C)noc2C)cc1
-8% | -1.4% | -1% | . | CCN(CC(=O)NCc1ccc(Cl)cc1)S(=O)(=O)c1ccc(F)cc1
-20% | ? | -1% | 15 | CC1CCCC(C)N1Cc1cn2ccccc2n1 (stereo not given)
-7% | -0.6% | 5% | -9 | O=c1c2ccccc2c(-c2cccc(C(F)(F)F)c2)nn1-c1ccccc1
5% | -1.2% | -1% | -18 | Cc1ccc(Oc2ccc3c(c2)C(=O)N(c2ccc(S(=O)(=O)Nc4nccs4)cc2)C3=O)cc1
-17% | -5.5% | -51% | -1 | COc1cccc(NC(=O)/C=C/c2ccco2)c1
-2% | -6.7% | . | . | CC(C)(C)OC(=O)N1CCCC(C(=O)Nc2cccc(C(=O)N3CCCCC3)c2)C1 (stereo not given)
-8% | 0.9% | -6% | -3 | Cc1ccc2cc(C#N)c(NCc3ccco3)nc2c1
4% | -2.8% | . | . | CCCCCC1CC(=O)NC1(C(=O)OCC)C(=O)OCC (stereo not given)
-11% | 4.2% | 0% | . | CCn1c(C)nnc1SCC(=O)Nc1ccc(Cl)cc1
5% | 1.5% | 10% | . | CC(C)N(CCCNC(=O)C1CCC(CNS(=O)(=O)c2ccccc2)CC1)Cc1ccccc1 (stereo not given)
0% | -2.4% | -5% | -8 | CCCOc1ccc(-c2csc(NC(=O)CN3C(=O)CCC3=O)n2)cc1
4% | 1.0% | 0% | 2 | C=CCNC(=O)COC(=O)/C=C/c1cccs1
-2% | 0.0% | . | . | COc1cc2cc(CCCOC(=O)c3cc(OC)c(OC)c(OC)c3)oc(=O)c2cc1OC
17% | -0.6% | -14% | 0 | O=C(NNc1cc(Cl)ccc1Cl)c1cccs1
16% | 1.0% | 1% | 1 | N=C1C2=C3Sc4ccccc4N3CCCC2=NN1c1cccc(S(=O)(=O)O)c1
-1% | 7.2% | -11% | 0 | CC1(N2CCCCC2)CC2(O)C(=[N+]1[O-])CCC/C2=N\O (stereo not given)
0% | 0.1% | -3% | . | Cc1ccc(C(=O)NCCc2nnc3ccc(N4CCCC4)nn23)cc1
6% | 3.9% | . | . | C=CC[C@@H](Cc1ccc(F)cc1)C(=O)OC[C@H]1CCCN1C(=O)[C@H](CC=C)CC(=O)NCCO
-15% | -0.3% | -7% | -3 | COc1ccc(-c2nnc3ccc(SCC(=O)Nc4nc5ccccc5s4)nn23)cc1OC
-15% | -1.7% | -9% | . | CC1CC(C)CN(c2oc(-c3ccccc3F)nc2C#N)C1 (stereo not given)
-1% | 4.8% | -9% | -16 | Cc1onc(-c2ccccc2)c1C(=O)Nc1ccc(OC(C)C)cc1
12% | 0.4% | -1% | . | O=C(CSc1ccc(-c2cccnc2)nn1)Nc1ccc(F)cc1F
0% | 0.0% | -6% | 1 | O=C(COc1ccccc1)NCC1CCCO1 (stereo not given)
-10% | -5.1% | ? | 7 | COc1ccc(C(=O)C(CN2CCOCC2)c2ccccc2)cc1F (stereo not given)
-18% | -0.6% | 16% | -5 | COc1cc(C(=O)NCC(c2ccco2)N2CCCC2)ccc1OCc1c(C)noc1C (stereo not given)
8% | -3.2% | . | . | CC(=O)C1=CN(CC2CCCCC2)CCC1=O
-9% | 3.7% | -42% | . | CCC(C)c1ccc(NC(=S)N2CCCC2)cc1 (stereo not given)
-6% | -3.2% | -2% | 5 | Cc1cc(C)n(CC2CC(=O)N(c3cc(Cl)cc(Cl)c3)C2=O)n1 (stereo not given)
8% | 0.8% | -6% | 4 | O=C(CSCc1ccc(Cl)cc1)Nc1ccccc1O
-3% | -1.6% | -1% | -15 | O=C(C1=C(O)C(=O)N(CC2CCCO2)C1c1cccnc1)c1ccco1 (stereo not given)
-20% | -0.2% | -1% | . | O=C(O)c1ccc(/C=N/Nc2ccc(Cl)nn2)cc1
26% | -2.2% | 3% | . | CCCc1cc(=O)oc2c3c(cc(OCC(=O)NCC4CCC(C(=O)O)CC4)c12)OC(C)(C)CC3 (stereo not given)
-5% | 2.6% | . | . | Cc1cc(NC(=O)CSCC(=O)OCC(=O)Nc2cc(C)c(C)cc2[N+](=O)[O-])no1
-14% | 3.2% | 13% | . | CC(C)n1c(COc2ccccc2)nc2ccccc21
2% | 4.4% | -4% | -22 | CN(C)S(=O)(=O)c1cccc(C(=O)OCC(=O)Nc2ccccc2OC(F)F)c1
-14% | ? | -15% | -3 | COc1ccc(OC)c2c1CCC2=O

Next part:
Rango release inh | Rango-impB inh | miR-21 FLuc | GLA inh pH 4.5 | compound
-23% | 1.5% | -12% | -17 | OC(Cc1cccnc1)(Cc1cccnc1)c1cc2ccccc2[nH]1
-2% | 4.8% | . | . | C=CC[C@H](CC(=O)NCCO)C(=O)NC[C@@H](OC(=O)[C@@H](CC=C)Cc1ccc(F)cc1)c1ccccc1
-4% | 3.9% | -6% | 0 | Cc1cc(C)c(C#N)c(SCC(=O)NC(C)(C)C)n1
-9% | 3.4% | -5% | -1 | Cc1cc(NC(=O)C2CCCN(S(=O)(=O)c3c(C)noc3C)C2)no1 (stereo not given)
11% | -0.3% | . | . | O=C(CCCCC(=O)NN=Cc1ccccc1O)NN=Cc1ccccc1O
2% | -1.8% | -4% | 1 | O=c1c2ccccc2[nH]c(=S)n1CCN1CCN(Cc2ccccc2)CC1
5% | ? | -10% | 24 | Cc1ccc(C(=O)Nc2sc3c(c2C(=O)NCc2ccco2)CCCC3)cc1
-8% | -0.3% | -9% | -3 | CCn1c(=O)cc(OCC(=O)Nc2ccccc2N2CCN(C)CC2)c2ccccc21
4% | -0.1% | -4% | -6 | COc1cc(CNC(C)c2ccccc2)c(Br)cc1OCC(N)=O (stereo not given)
-8% | 4.3% | -13% | 1 | O=C(Nc1ccccc1)Nc1ccno1
-19% | -0.6% | 0% | 4 | Cc1ccccc1OCC(=O)N/N=C/c1cc2ccccc2nc1Cl
6% | -0.5% | -8% | 1 | Cc1occc1C(=O)N/N=C/C(Br)=C\c1ccccc1

Entries shown so far that have a CF3 group (2):
Rango release inh | Rango-impB inh | miR-21 FLuc | GLA inh pH 4.5 | compound
1% | 2.4% | -10% | 4 | N#CC1=C2Nc3ccccc3N2C(=O)NC1(c1ccccc1)C(F)(F)F (stereo not given)
-7% | -0.6% | 5% | -9 | O=c1c2ccccc2c(-c2cccc(C(F)(F)F)c2)nn1-c1ccccc1

These rows are one share of the data; the hit share may differ from the screen's.
